# Sa helicase inh = S. aureus DNA helicase inhibition | purified S. aureus helicase, fluorescence unwinding assay; about half of the hits fall short of the stated cut | inhibition, %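 (tested at about 80 µM)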 | 0.05% of 120,000 active | AID 485395;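 active means both duplicates at 50% or more, or one of them with a favoured structure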;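 further: 0% = mean of negative control wells and 100% = mean of positive control wells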
# MgrA-DNA mod = modulators of Staphylococcus aureus MgrA DNA binding; fluorescence polarization; inhibition, %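 (about 10 µg/mL by stock and volumes)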; 0.13% of 84,000 active;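 active means above 50% in either of two replicates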;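 further: 0% = protein plus DNA without compound and 100% = DNA alone without protein; higher means less MgrA bound to DNA so lower polarization; one replicate is shown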
# * = called active by the depositor; . = not tested or not shown; & = joins results of further samples. These rows are one share of the data; rates above refer to the full screens.
SMILES,Sa helicase inh,MgrA-DNA mod
CCCNC(=O)c1ccccc1N,7.0,0.6
OCc1nc2ccccc2n1Cc1ccc2ccccc2c1,-2.0,.
CC(C)(C)OC(=O)N1CCC[C@H]1C(=O)OCC(=O)Nc1ccc2c(c1)OCCCO2,-4.0,.
CCC(Sc1nnc2c3ccccc3n(C)c2n1)C(=O)NC(C)c1ccccc1 (stereo not given),8.0,.
O/N=C/c1c(OCc2ccccc2)ccc2ccccc12,6.0,0.8
CSc1ccccc1C(=O)NCc1ccc2c(c1)OCO2,6.0,-1.5
CCOc1ccc2nc(NC(=O)C(CC(C)C)NS(=O)(=O)c3ccc4c(c3)oc(=O)n4C)sc2c1 (stereo not given),4.0,.
O=C(O)c1ccc(S(=O)(=O)Cc2ccccc2)cc1,-3.0,.
NNC(=O)CNC(c1ccccc1)c1cc(Br)ccc1NC(=O)CCN1CCOCC1 (stereo not given),13.0,.
N/C(=N/OC(=O)c1ccccc1)c1ccccn1,14.0,-1.3
O=C(NCc1ccc2c(c1)OCO2)c1cc(=O)[nH]c2ccc(Br)cc12,21.0,.
O=c1[nH]c(NC2CCN(Cc3ccccc3)CC2)nc2c1CCCC2,-2.0,-1.7
CC(C)N(C(=O)Cn1nc(C(=O)O)c2ccccc2c1=O)C(C)C,6.0,.
CCCCCC(=O)N1c2ccccc2NC2=C(C(=O)CC(c3ccco3)C2)C1c1ccc(OC)c(OC)c1 (stereo not given),.,-1.0
CC(=O)N1C(=O)c2ccc([N+](=O)[O-])cc2C1=O,.,-2.4
CCOC(=O)c1ccc(NC(=O)CS(=O)(=O)C(C)C)cc1,.,-1.8
Cn1nc(C(C)(C)C)c(NC(=O)c2sccc2Cl)c1C(C)(C)C,12.0,.
CC1=C(C#N)C(=O)NC(=O)/C1=C\c1ccc(-c2ccc(S(N)(=O)=O)cc2)o1,-3.0,31.4
O=C(CSc1ncccn1)NCCc1ccccc1,1.0,.
O=C(O)CCCN1C(=O)/C(=C/c2ccc(-c3ccccc3F)o2)SC1=S,-47.0,.
O=c1oc2cc(O)ccc2cc1-c1csnn1,-23.0,.
CC1(C)C2C3CCC(CO)(CC3)C21 (stereo not given),.,-2.4
CCOC(=O)c1cc(Br)ccc1OCc1ccccc1Cl,-6.0,0.1
N#CCCn1cc(/C=C/C(=O)O)c2ccccc21,-1.0,.
Cc1cc(C)n(C(C)CC(=O)NCc2cccs2)n1 (stereo not given),-10.0,.
NNC(=O)C1CCCCC1,-2.0,.
Fc1cccc2ncnc(OCc3ccccc3)c12,4.0,-1.5
CC(=O)Nc1c(F)cc(F)cc1C#N,.,0.9
Cc1ccc(-c2cc(NC(=O)CN(C)CC3COc4ccccc4O3)on2)cc1 (stereo not given),15.0,.
C=CCn1ncc(Cc2cnn(CC=C)c2C)c1C,12.0,.
Cc1cccc(N2C(=NC(=O)c3ccc(Br)cc3)SC3CS(=O)(=O)CC32)c1 (stereo not given),3.0,1.6
CC1CCCC(C)N1NC(=O)CCN1C(=O)S/C(=C\c2cccs2)C1=O (stereo not given),4.0,.
Cc1cc(C)nc(-n2c(Nc3ccccc3)cc(=O)c3c(C)n(-c4ccccc4)c(=O)nc32)n1,.,-0.7
NN=C(c1ccccc1)c1ccccc1,3.0,-6.2
CCOc1ccc(S(=O)(=O)NCC(=O)OCN2C(=O)c3ccccc3C2=O)cc1,-11.0,.
O=C1CCCCC1Sc1nnc(-c2ccco2)n1Cc1ccccc1 (stereo not given),-2.0,.
COC(=O)c1ccc(S(=O)(=O)NC2Cc3ccccc3C2)n1C,.,-2.8
Cc1nn(-c2ccc(Cl)cc2)c2sc(C(=O)ONC3=NCCCCC3)cc12,6.0,.
O=C(CN1CCCc2ccccc21)NCc1ccccc1Cl,-8.0,.
O=C(O)c1cccnc1SCCS(=O)(=O)c1ccccc1,.,-4.0
Cc1cc(/C=C(\C#N)C(=O)OC(C)C)c(C)n1-c1cc(Cl)ccc1Cl,-11.0,.
COc1ccc(-c2[nH]nc3c2C(c2ccc(N(C)C)cc2)C2=C(CC(C)(C)CC2=O)N3)cc1 (stereo not given),-3.0,.
COc1ccccc1NC(=O)CSc1c2c(nc3ccccc13)CCC2,20.0,-1.7
CCC(c1nnc(SC/C(O)=C(\C#N)c2nc3ccccc3[nH]2)n1Cc1ccccc1)N(C)C (stereo not given),3.0,.
CCC1=NC(c2ccccc2OC)N(O)C1(C)C (stereo not given),6.0,3.0
CC(C)CNC(=O)c1cnn2c(C(F)F)cc(-c3ccccc3)nc12,-23.0,.
COc1ccc(C(=O)COC(=O)CSc2nc(C)cc(C)n2)cc1OC,-3.0,.
COc1ccc(C(=O)Sc2nnc(-c3cccs3)n2-c2ccccc2)cc1,-10.0,.
CC1CCN(S(=O)(=O)c2ccc(F)c(F)c2)CC1,1.0,-0.8
COc1ccc(C(=O)NCc2nnc(SC)n2C2CCCCC2)cc1,4.0,.

# (more compounds)
SMILES,Sa helicase inh,MgrA-DNA mod
COc1ccc(NC(C(=O)O)c2ccccc2)cc1 (stereo not given),.,-1.2
O=C(O)CCCn1c(=O)oc2ccccc21,12.0,-0.9
CCOC(=O)C1CCN(/C(C)=C2/C(=O)N(c3nc4ccccc4[nH]3)N=C2C)CC1,0.0,5.6
COc1ccc(C(=O)CSC2=NCCc3ccccc32)cc1,.,-3.8
Cc1ccnc(SCC(=O)N2CCc3ccccc3C2)n1,1.0,0.7
COc1ccc(N2CCN(C(=O)CN(C)CC(=O)Nc3cccc(F)c3)CC2)cc1,-4.0,.
Cc1cc(C)nc(SCC(=O)C2CC2)n1,-1.0,2.4
CCC(C)NC(=O)C1c2cc(OC)c(OC)cc2C(=O)N(C)C1c1ccc(OC)c(OC)c1 (stereo not given),6.0,0.5
S=C1NC(c2ccccc2)=NCN1c1ccc(Cl)cc1,8.0,1.4
CSc1nc(N2CCCCC2)c2c(c1C#N)CCCC2,5.0,1.0
Cc1cc(C(=O)Nc2ccc3c(c2)OCCO3)cs1,13.0,0.5
CNC(=S)NCCc1c[nH]c2ccc(OC)cc12,-7.0,.
O=C(NC(Cc1c[nH]c2ccccc12)C(=O)Nc1ccccc1)Oc1ccccc1 (stereo not given),6.0,.
C=C(C)Cn1c(COc2ccc(Cl)cc2)nnc1SCC(=O)O,15.0,.
CC(=O)N1CCN(c2nc(C3CC3)nc3sc4c(c23)CCCC4)CC1,16.0,-3.0
O=C1CCCN2N=C(SCc3cccc(C(F)(F)F)c3)SC2=N1,3.0,.
COc1ccccc1NC(=O)c1ccc(C(=O)c2ccccc2)o1,7.0,0.2
CNC(=O)CSCc1cnn(-c2ccccc2)c1-n1cccc1,21.0,1.1
Cc1cc(-n2c(C)cc(C(=O)COC(=O)c3sccc3C)c2C)no1,7.0,.
O=C(O)c1ccc2c(c1)no[n+]2[O-],4.0,-2.6
COc1cc2[nH]c(=O)n(/N=C/c3ccc(O)c(Br)c3)c(=O)c2cc1OC,4.0,.
NC(CC(=O)O)c1ccccc1 (stereo not given),-19.0,.
C=CCN1Cc2c(sc3c2CCCC3)N(C(=O)c2ccccc2)C1,5.0,-0.8
COc1ccc(-c2nc3nnc(C)n3[nH]2)c(OC)c1,9.0,1.0
CC1(C)OC(c2ccncc2)OC1(C)C,5.0,-2.6
O=C(C1CCN(C2=NS(=O)(=O)c3ccccc32)CC1)N1CCc2ccccc21,-2.0,.
COc1ccc(/C=C/C(=O)Nc2ccn(-c3ccccc3)n2)cc1,-6.0,0.3
COc1ccc(C2NC(=O)NC(C)=C2C(=O)OCc2ccc3c(c2)OCO3)cc1OC (stereo not given),.,3.5
Cc1ccc(F)cc1N1CC(C(=O)O)CC1=O (stereo not given),.,-0.8
Oc1ccccc1-c1nc2sccn2c1Nc1ccccc1,13.0,.

# Whole records as entered above. Values in the order: Sa helicase inh | MgrA-DNA mod
# COc1cc2[nH]c(=O)n(/N=C/c3ccc(O)c(Br)c3)c(=O)c2cc1OC is listed as 4.0 | .
# Oc1ccccc1-c1nc2sccn2c1Nc1ccccc1 is listed as 13.0 | .

# Remaining list, next part.
SMILES,Sa helicase inh,MgrA-DNA mod
O=C(Nc1ccccc1Cl)NC1(C(=O)NCc2cccnc2)CCCCC1,18.0,-0.9
Cc1ccc(C)c(C(=O)CSc2nc3nc(C)cc(C)c3c(=O)[nH]2)c1,6.0,-3.2
Cc1ccc(Nc2nnc(SCC(=O)NC(=O)NCc3ccco3)s2)cc1C,5.0,.
COc1c(Cl)cc(Cl)c(OC)c1C(=O)O,.,-5.8
CCc1nnc(NC(=O)C2CC(=O)N(c3ccccc3)C2)s1 (stereo not given),5.0,3.0
N#CCCN(C(=O)Cn1c(Cc2ccccc2)nc2ccccc21)c1ccccc1,-6.0,-2.1
COc1ccc(-c2ccnc(SC)n2)cc1,.,3.5
CCC1(C)CC(=O)NC1=O (stereo not given),.,6.6&0.8
Cc1sc2ncnc(NCC(=O)O)c2c1C,1.0,-7.5
FC(F)(F)Oc1ccccc1C=Nc1ccc(Cl)cc1,.,-0.2

# Not a retest: entries from further up.
SMILES,Sa helicase inh,MgrA-DNA mod
Cc1cc(C(=O)Nc2ccc3c(c2)OCCO3)cs1,13.0,0.5
CNC(=S)NCCc1c[nH]c2ccc(OC)cc12,-7.0,.
O=C(NC(Cc1c[nH]c2ccccc12)C(=O)Nc1ccccc1)Oc1ccccc1 (stereo not given),6.0,.
C=C(C)Cn1c(COc2ccc(Cl)cc2)nnc1SCC(=O)O,15.0,.
CC(=O)N1CCN(c2nc(C3CC3)nc3sc4c(c23)CCCC4)CC1,16.0,-3.0
O=C1CCCN2N=C(SCc3cccc(C(F)(F)F)c3)SC2=N1,3.0,.
COc1ccccc1NC(=O)c1ccc(C(=O)c2ccccc2)o1,7.0,0.2
CNC(=O)CSCc1cnn(-c2ccccc2)c1-n1cccc1,21.0,1.1
Cc1cc(-n2c(C)cc(C(=O)COC(=O)c3sccc3C)c2C)no1,7.0,.
O=C(O)c1ccc2c(c1)no[n+]2[O-],4.0,-2.6
COc1cc2[nH]c(=O)n(/N=C/c3ccc(O)c(Br)c3)c(=O)c2cc1OC,4.0,.
NC(CC(=O)O)c1ccccc1 (stereo not given),-19.0,.
C=CCN1Cc2c(sc3c2CCCC3)N(C(=O)c2ccccc2)C1,5.0,-0.8
COc1ccc(-c2nc3nnc(C)n3[nH]2)c(OC)c1,9.0,1.0
CC1(C)OC(c2ccncc2)OC1(C)C,5.0,-2.6
O=C(C1CCN(C2=NS(=O)(=O)c3ccccc32)CC1)N1CCc2ccccc21,-2.0,.
COc1ccc(/C=C/C(=O)Nc2ccn(-c3ccccc3)n2)cc1,-6.0,0.3
COc1ccc(C2NC(=O)NC(C)=C2C(=O)OCc2ccc3c(c2)OCO3)cc1OC (stereo not given),.,3.5
Cc1ccc(F)cc1N1CC(C(=O)O)CC1=O (stereo not given),.,-0.8
Oc1ccccc1-c1nc2sccn2c1Nc1ccccc1,13.0,.
O=C(Nc1ccccc1Cl)NC1(C(=O)NCc2cccnc2)CCCCC1,18.0,-0.9
Cc1ccc(C)c(C(=O)CSc2nc3nc(C)cc(C)c3c(=O)[nH]2)c1,6.0,-3.2
Cc1ccc(Nc2nnc(SCC(=O)NC(=O)NCc3ccco3)s2)cc1C,5.0,.
COc1c(Cl)cc(Cl)c(OC)c1C(=O)O,.,-5.8
CCc1nnc(NC(=O)C2CC(=O)N(c3ccccc3)C2)s1 (stereo not given),5.0,3.0
N#CCCN(C(=O)Cn1c(Cc2ccccc2)nc2ccccc21)c1ccccc1,-6.0,-2.1
COc1ccc(-c2ccnc(SC)n2)cc1,.,3.5

# The results go on.
SMILES,Sa helicase inh,MgrA-DNA mod
CN(Cc1ccccc1)C(=O)COC(=O)C1COc2ccccc2O1 (stereo not given),15.0,.
CC(=O)Oc1c(I)c(=O)n(C)c2ccccc12,.,-3.8
CC(NC(=O)CCn1c(=S)oc2ccccc21)c1ccccc1 (stereo not given),-12.0,-0.5
O=C(Nc1ccc(OC(F)(F)F)cc1)Nc1cc(-c2ccccc2)[nH]n1,.,-1.1
c1cnc(Oc2ccc3oc4ccccc4c3c2)nc1,-6.0,.
O=C(Nc1c2c(nn1-c1ccc(Cl)cc1)CSC2)c1ccc(S(=O)(=O)N2CCCCC2)cc1,.,0.4
CCOC(=O)CS(=O)(=O)c1ccc2ccccc2c1,-6.0,-1.0
CSc1nn(CCc2ccncc2)c(=S)s1,-3.0,.
O=C(O)CCCn1c(O)c(C2=c3ccccc3=NC2=O)sc1=S,-15.0,.
COc1cccc(C(=O)NCc2ccc3c(c2)OCO3)c1,-5.0,.
O=C(O)/C=C/c1ccc(-c2cccc(C(F)(F)F)c2)o1,-21.0,.
C=CCn1c(SCCC(=O)Nc2ccc(S(N)(=O)=O)cc2)nc2sc3c(c2c1=O)CCCC3,.,1.9
CN(C)S(=O)(=O)c1ccc(C(=O)NCCSc2c[nH]c3ccccc23)cc1,-15.0,.
Cc1c(C)n(Cc2ccccc2)c2ccc(C(=O)O)cc12,-1.0,-5.5
Cc1cc2cc(CNC(=O)C3CCCCC3)ccc2n1C,15.0,-2.5
COc1ccc(/C=C(\C#N)c2ccc(O)cc2)cc1OC,.,0.4
CCCc1cc(C(=O)NCc2ccco2)no1,-33.0,.
Cc1nn(-c2ccccc2)nc1C(=O)Nc1ccc2[nH]ncc2c1,.,-2.5
CCOC(=O)c1c(NC(=O)CSc2ncnc3ccccc23)sc2c1CCC2,-20.0,.
CCS(=O)CCSc1nc2ccccc2s1 (stereo not given),5.0,4.2
O=C(CCn1c(=O)oc2ccccc21)NCc1cccs1,7.0,.
Cc1cccc(-c2nc3c(c(=O)[nH]2)Cc2ccccc2O3)c1,-21.0,.

# Screens (PubChem BioAssay)
